HCMV NEC inh: inhibitors of HCMV UL50-UL53 interaction, biochemical, HTRF | AID 1918969, 2023 | normalized percent inhibition | 190,000 tested, 0.15% active | HCMV UL50-UL53 nuclear egress complex (human cytomegalovirus) | inhibition, % (test concentration not listed);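 active = both replicates at 50% or more, plus weaker picks with an unusually low signal ratio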;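 also: stock transfer was 100 nL into about 20 µL; 0% = negative control wells and 100% = wells with untagged competitor protein; inactives centre near -12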
Sa growth 42C: S. aureus growth inhibition at 42 and 30 °C, primary screen, LtaS inhibitor project, RN4220, two temperatures. relative growth, % (no concentration beside the values). OD600, 20 h, 42 °C; hits give low values. 170,000 tested, 0.53% active. AID 720641, 2013;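 active = growth at 42 °C up to 50% and 20 or more points under that at 30 °C, or under 10% at both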;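 also: 300 nL library stock went into each well; scaled to the means of positive and negative controls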
GIV Gai3 FP: inhibitors of GIV peptide binding to Galpha-i3, primary screen, biochemical, fluorescence polarization, FITC-GIV GBA peptide, rat Galphai3; 210,000 tested, 0.42% active; Guanine nucleotide-binding protein G(i) subunit alpha-3 (Rattus norvegicus), P08753; 90 min; hits give low values; scaled: aluminum fluoride 0%, vehicle 100%; percent of control (FP), % (concentration not given with the values);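 active = replicate mean at 85% of control or lower, very high polarization wells dropped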;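 also: wells of about 15 µL received 100 nL stock; the first replicate is given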
Target sequence (P08753 whole entry, looked up): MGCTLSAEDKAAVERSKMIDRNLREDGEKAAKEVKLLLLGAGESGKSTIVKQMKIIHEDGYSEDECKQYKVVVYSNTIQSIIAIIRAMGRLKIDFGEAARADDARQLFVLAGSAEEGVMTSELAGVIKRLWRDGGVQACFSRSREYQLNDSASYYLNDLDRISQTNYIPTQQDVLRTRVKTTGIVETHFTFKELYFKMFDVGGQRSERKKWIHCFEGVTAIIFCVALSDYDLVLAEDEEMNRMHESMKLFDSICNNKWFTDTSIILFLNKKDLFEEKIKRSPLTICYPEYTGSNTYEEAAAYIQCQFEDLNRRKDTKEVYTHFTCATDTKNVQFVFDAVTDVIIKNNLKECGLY
Sa growth 42C second temp: further read-out of Sa growth 42C, marked with its call; relative growth, %; measured here: growth at 30 °C;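 optical density after 20 h as mean of two plates; 100% = untreated growth and lower means inhibition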
An asterisk follows results filed as active. Random draw from the library. Share with any hit: about 0.82%.

How did COc1ccc(N2CCN(C(=O)c3cccn3-c3nnc(N4CCCC4)s3)CC2)cc1 do in these assays?
Sa growth 42C: 85; GIV Gai3 FP: 103; Sa growth 42C second temp: 88

Results for O=C(COc1ccccc1)N1CCN(C(=O)c2ccccc2)CC1 ?
HCMV NEC inh: 6; Sa growth 42C: 102; GIV Gai3 FP: 103; Sa growth 42C second temp: 115

What do the screens show for `O=C1NC(=O)C2C1ON(c1ccc(Cl)cc1)C2c1ccccc1` (stereo not drawn)?
HCMV NEC inh: -16; Sa growth 42C: 102; GIV Gai3 FP: 97; Sa growth 42C second temp: 84

How did Cc1c(Br)sc2sc(-c3ccn(C)n3)c(C)c12 do in these assays?
HCMV NEC inh: -18; Sa growth 42C: 83; GIV Gai3 FP: 108; Sa growth 42C second temp: 75

How did Cc1cccc(-c2nc3nc(C)cc(N(CCO)CCO)n3n2)c1 do in these assays?
HCMV NEC inh: -24; GIV Gai3 FP: 107

How did CC1(c2ccc(C#N)cc2)NC(=O)N(CC(=O)C23CC4CC(CC(C4)C2)C3)C1=O (stereo not drawn) do in these assays?
HCMV NEC inh: -31; Sa growth 42C: 84; Sa growth 42C second temp: 89

What do the screens show for `COc1ccc(NC(C)=O)cc1NC(C)C(=O)NCC1CCCCC1` (stereo not drawn)?
HCMV NEC inh: -11; Sa growth 42C: 90; Sa growth 42C second temp: 91

Results for Cc1cc(Cl)ccc1OCC(=O)N=Nc1c(O)[nH]c(=O)[nH]c1=O ?
HCMV NEC inh: -93; Sa growth 42C: 84; GIV Gai3 FP: 98; Sa growth 42C second temp: 92

Results for COc1ccc(S(=O)(=O)c2cn(C)c3cc(N4CCCCC4)c(F)cc3c2=O)cc1 ?
Sa growth 42C: 115; GIV Gai3 FP: 107; Sa growth 42C second temp: 98

What do the screens show for `CC(=O)NC1CC2CCC(C1)N2Cc1ccc(C)cc1` (stereo not drawn)?
HCMV NEC inh: -30; Sa growth 42C: 85; GIV Gai3 FP: 97; Sa growth 42C second temp: 90

Results for COc1cccc(CNS(=O)(=O)c2ccc3[nH]c(=O)ccc3c2)c1 ?
Sa growth 42C: 88; GIV Gai3 FP: 104; Sa growth 42C second temp: 84

Results for CC(=O)Nc1ccccc1-c1nnc(SC(C)C(=O)Nc2ccc(C)cc2C)[nH]c1=O (stereo not drawn) ?
HCMV NEC inh: -20; GIV Gai3 FP: 93

How did CCc1nc2ccccc2n1Cc1cccc(S(=O)(=O)N2CCOCC2)c1 do in these assays?
HCMV NEC inh: -21; Sa growth 42C: 90; Sa growth 42C second temp: 84

How did NC(=O)C1CC12c1ccccc1-c1ccccc12 (stereo not drawn) do in these assays?
HCMV NEC inh: 17; Sa growth 42C: 114; GIV Gai3 FP: 104; Sa growth 42C second temp: 93

How did O=C(Nc1ccc(S(=O)C(F)(F)F)cc1)c1ccccn1 (stereo not drawn) do in these assays?
HCMV NEC inh: -14; Sa growth 42C: 103; Sa growth 42C second temp: 94

What do the screens show for `CCn1c(C(=O)NCCc2ccccc2)cc2oc3ccccc3c21`?
Sa growth 42C: 99; GIV Gai3 FP: 109; Sa growth 42C second temp: 90

How did CC(=O)Oc1ccc2c3c(c(=O)oc2c1)CCC3 do in these assays?
HCMV NEC inh: 5; Sa growth 42C: 88; Sa growth 42C second temp: 95

How did O=c1c(=O)n(Cc2cccc(F)c2)ccn1Cc1ccccc1 do in these assays?
HCMV NEC inh: -26; Sa growth 42C: 83; GIV Gai3 FP: 101; Sa growth 42C second temp: 87

Results for CN1C(=O)C(C)(C)c2cc(S(=O)(=O)N(C)Cc3ccccc3)ccc21 ?
HCMV NEC inh: -5; Sa growth 42C: 81; GIV Gai3 FP: 104; Sa growth 42C second temp: 88

How did O=C(Nc1ccccc1)Nc1ccc(S(=O)(=O)Nc2ccc(F)cc2)cc1 do in these assays?
HCMV NEC inh: 3; Sa growth 42C: 92; Sa growth 42C second temp: 96

Retrieved by compound from the list above:
How did O=c1c(=O)n(Cc2cccc(F)c2)ccn1Cc1ccccc1 do in these assays?
HCMV NEC inh: -26; Sa growth 42C: 83; GIV Gai3 FP: 101; Sa growth 42C second temp: 87

What do the screens show for `O=C1NC(=O)C2C1ON(c1ccc(Cl)cc1)C2c1ccccc1` (stereo not drawn)?
HCMV NEC inh: -16; Sa growth 42C: 102; GIV Gai3 FP: 97; Sa growth 42C second temp: 84

Results for COc1ccc(S(=O)(=O)c2cn(C)c3cc(N4CCCCC4)c(F)cc3c2=O)cc1 ?
Sa growth 42C: 115; GIV Gai3 FP: 107; Sa growth 42C second temp: 98

The results go on.
Results for CC1=C(C(=O)NC2CCCCC2C)C2(CCCCC2)OC1=O (stereo not drawn) ?
HCMV NEC inh: 1; GIV Gai3 FP: 101

Results for CC(=O)Nc1ccc(NC(=O)C(NS(=O)(=O)c2ccc(Br)s2)c2ccccc2)cc1 (stereo not drawn) ?
HCMV NEC inh: -4; Sa growth 42C: 96; GIV Gai3 FP: 101; Sa growth 42C second temp: 91

Results for Cc1ccccc1Cn1cc(CCCC(=O)O)c2ccccc21 ?
Sa growth 42C: 78; GIV Gai3 FP: 104; Sa growth 42C second temp: 58

Results for O=S(=O)(c1ccccc1)C1CC1(Cl)Cl (stereo not drawn) ?
HCMV NEC inh: -13; Sa growth 42C: 96; GIV Gai3 FP: 98; Sa growth 42C second temp: 89

Results for CSc1nc2c(cc1C#N)CCCCC2 ?
HCMV NEC inh: -3; Sa growth 42C: 96; Sa growth 42C second temp: 91

How did Clc1cccc(CNc2ccc3nnc(-c4ccccc4)n3n2)c1 do in these assays?
Sa growth 42C: 94; GIV Gai3 FP: 98; Sa growth 42C second temp: 96

What do the screens show for `CCOC(=O)c1ccc2nc(C(F)(F)F)nc(N3CCCCC3)c2c1`?
Sa growth 42C: 125; GIV Gai3 FP: 99; Sa growth 42C second temp: 85

What do the screens show for `C(=Nc1cccnc1)c1ccccc1`?
HCMV NEC inh: 1; Sa growth 42C: 103; Sa growth 42C second temp: 90

Results for CC12CC(NC(=O)N1Cc1ccccc1)c1ccccc1O2 (stereo not drawn) ?
Sa growth 42C: 93; GIV Gai3 FP: 104; Sa growth 42C second temp: 88

Results for CN(CCOc1ccc(Cl)cc1)c1nn(C)c(=O)n(C)c1=O ?
HCMV NEC inh: 4; Sa growth 42C: 98; Sa growth 42C second temp: 90

Results for Cc1cccc(NC(=O)c2cc3c(C)nn(-c4ccccc4)c3s2)c1 ?
HCMV NEC inh: -34; Sa growth 42C: 89; GIV Gai3 FP: 101; Sa growth 42C second temp: 92

How did CCc1nnc(SCc2ccccc2)c2cc3occc3n12 do in these assays?
Sa growth 42C: 110; GIV Gai3 FP: 116; Sa growth 42C second temp: 85

What do the screens show for `O=C(CN1Cc2ccccc2C1=O)Nc1cc(F)ccc1F`?
Sa growth 42C: 92; GIV Gai3 FP: 100; Sa growth 42C second temp: 89

Results for COc1ccc(NC(=O)CCNS(=O)(=O)c2ccc3c(c2)CCN3C(=O)C2CC2)cc1Cl ?
Sa growth 42C: 96; GIV Gai3 FP: 101; Sa growth 42C second temp: 88

How did COc1ccc(-c2noc(CSc3nc4ccc(C)cc4[nH]3)n2)c(OC)c1 do in these assays?
HCMV NEC inh: -10; Sa growth 42C: 99; GIV Gai3 FP: 105; Sa growth 42C second temp: 70

What do the screens show for `Cc1cccc(OCc2nc(-c3ccccc3)no2)c1`?
HCMV NEC inh: 20; Sa growth 42C: 91; Sa growth 42C second temp: 101

What do the screens show for `O=C1NC(=O)C(Cc2ccccc2)N1` (stereo not drawn)?
HCMV NEC inh: -26; Sa growth 42C: 106; GIV Gai3 FP: 97; Sa growth 42C second temp: 86

What do the screens show for `CCN(CC)CC#CC1(O)CCCCC1`?
HCMV NEC inh: 29; Sa growth 42C: 77; GIV Gai3 FP: 107; Sa growth 42C second temp: 119

What do the screens show for `CCN(CC)CCNc1nc2c(c(=O)[nH]c(=O)n2C)n1CC(O)COc1ccc(Cl)cc1Cl` (stereo not drawn)?
HCMV NEC inh: 4; GIV Gai3 FP: 102

What do the screens show for `CN(Cc1nc(-c2ccccc2)no1)C(=O)c1ccccc1`?
HCMV NEC inh: -34; Sa growth 42C: 93; GIV Gai3 FP: 98; Sa growth 42C second temp: 97

A draw from above in order of formula weight, high to low.
Results for Cc1cc(Cl)ccc1OCC(=O)N=Nc1c(O)[nH]c(=O)[nH]c1=O ?
HCMV NEC inh: -93; Sa growth 42C: 84; GIV Gai3 FP: 98; Sa growth 42C second temp: 92

How did Cc1c(Br)sc2sc(-c3ccn(C)n3)c(C)c12 do in these assays?
HCMV NEC inh: -18; Sa growth 42C: 83; GIV Gai3 FP: 108; Sa growth 42C second temp: 75

Results for CN(CCOc1ccc(Cl)cc1)c1nn(C)c(=O)n(C)c1=O ?
HCMV NEC inh: 4; Sa growth 42C: 98; Sa growth 42C second temp: 90

The list goes on.
How did O=C(CSC1CC(=O)N(c2ccccc2)C1=O)Nc1ccccc1 (stereo not drawn) do in these assays?
HCMV NEC inh: 3; Sa growth 42C: 69; GIV Gai3 FP: 100; Sa growth 42C second temp: 61

How did O=C1C=C(Nc2ccccc2)C(=O)c2ccccc21 do in these assays?
HCMV NEC inh: -58; Sa growth 42C: 24; GIV Gai3 FP: 101; Sa growth 42C second temp: 17

How did CC(=O)Nc1nc2ccc(NC(=O)CC3CCCC3)cc2s1 do in these assays?
HCMV NEC inh: -25; GIV Gai3 FP: 101

What do the screens show for `O=c1[nH]ccc2c(OCc3ccccn3)cccc12`?
HCMV NEC inh: -12; Sa growth 42C: 123; GIV Gai3 FP: 108; Sa growth 42C second temp: 78

How did O=C1c2ccccc2-c2onc3ccc(N4CCOCC4)c1c23 do in these assays?
HCMV NEC inh: -108; Sa growth 42C: 116; GIV Gai3 FP: 120; Sa growth 42C second temp: 67

How did Cc1nc(N2CCCC2)ncc1C(=O)NCc1ccccc1Cl do in these assays?
Sa growth 42C: 106; GIV Gai3 FP: 103; Sa growth 42C second temp: 89

What do the screens show for `Cc1cc(N2CCN(C)CC2)ccc1NC(=O)CNC(=O)C12CC3CC(CC(C3)C1)C2`?
HCMV NEC inh: -15; Sa growth 42C: 90; Sa growth 42C second temp: 92

What do the screens show for `CC1CN(C(=O)c2ccccc2)OC(c2ccc3c(c2)OCO3)O1` (stereo not drawn)?
HCMV NEC inh: -37; Sa growth 42C: 96; Sa growth 42C second temp: 82

What do the screens show for `COc1ccc2c(CNCc3cccs3)c(C(=O)O)n(Cc3ccccc3)c2c1`?
Sa growth 42C: 111; GIV Gai3 FP: 103; Sa growth 42C second temp: 84

What do the screens show for `O=C(CSc1ccccn1)NC1CCCC1`?
HCMV NEC inh: 2; Sa growth 42C: 117; Sa growth 42C second temp: 105

What do the screens show for `CNC(=O)c1cccc(Oc2ccccc2)c1`?
HCMV NEC inh: 19; Sa growth 42C: 100; GIV Gai3 FP: 102; Sa growth 42C second temp: 85

How did Cc1cc(=O)[nH]c(N2CCc3ccccc3C2)n1 do in these assays?
HCMV NEC inh: -8; Sa growth 42C: 82; GIV Gai3 FP: 110; Sa growth 42C second temp: 79

What do the screens show for `CC1CN(C2=NC(=O)/C(=C/c3ccccc3)S2)CC(C)O1` (stereo not drawn)?
Sa growth 42C: 114; GIV Gai3 FP: 103; Sa growth 42C second temp: 92

What do the screens show for `O=C1SC(=S)N/C1=C/c1cccc(O)c1`?
HCMV NEC inh: -35; Sa growth 42C: 35; Sa growth 42C second temp: 20

How did CCOc1ccc(CC(=O)Nc2c(C(=O)Nc3ccc(OC)cc3OC)oc3ccccc23)cc1 do in these assays?
HCMV NEC inh: -26; Sa growth 42C: 111; GIV Gai3 FP: 105; Sa growth 42C second temp: 87

What do the screens show for `N#Cc1c(-n2ncnc2-c2cccc(Br)c2)sc2c1CCCCC2`?
HCMV NEC inh: -20; Sa growth 42C: 106; GIV Gai3 FP: 101; Sa growth 42C second temp: 90

Results for O=C(Cc1ccccc1)NC1(C(=O)Nc2cccc(Cl)c2)CCCCC1 ?
HCMV NEC inh: -8; Sa growth 42C: 97; Sa growth 42C second temp: 80

How did CN(C(=O)c1ccc2c(c1)N(Cc1ccccc1F)C(=O)c1ccccc1S2)C1CCCCC1 do in these assays?
Sa growth 42C: 88; GIV Gai3 FP: 101; Sa growth 42C second temp: 66

How did Cc1ccc(-n2c(=O)c3ccc(C(=O)NCc4ccccc4Cl)cc3n(CC(N)=O)c2=O)cc1 do in these assays?
HCMV NEC inh: -37; Sa growth 42C: 116; GIV Gai3 FP: 99; Sa growth 42C second temp: 88

How did CN(CC(=O)Nc1ccc(N2CCOCC2)cc1)Cc1cc(=O)n2ccsc2n1 do in these assays?
HCMV NEC inh: -10; Sa growth 42C: 87; Sa growth 42C second temp: 99

How did CCCCCNc1nc(C(C)C)c2c(c1C#N)CC(C)(C)OC2 do in these assays?
HCMV NEC inh: -8; Sa growth 42C: 88; GIV Gai3 FP: 100; Sa growth 42C second temp: 91

How did COc1ccc(-c2nn(-c3ccc(C)cc3)c3c2cnc2ccc(C)cc23)cc1OC do in these assays?
HCMV NEC inh: -12; Sa growth 42C: 97; GIV Gai3 FP: 102; Sa growth 42C second temp: 90
